CtBP-E1A blk = qHTS Assay for Inhibitors of the CtBP/E1A Interaction; AlphaScreen GST-E1A/His-CtBP binding, 1536-well; stronger effect = lower value; control for the full effect not named in the record; 340,000 compounds, 0.49% hits; AID 651724, 2012; activity change, % (concentration not given with the values); in the data active means activity change below about -65%; inconclusive means about -30% to -65%; inactive means above about -30%; also: % is scaled to controls: 0 for no effect and ±100 for the full control effect
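Steps: dispense buffer (Tris pH 8.0, NaCl 300 mM, TCEP 1 mM, BSA, Tween 20); add 5X protein mix (GST-E1A, His-CtBP, 125 nM each); pin 23 nL compound; 2 h at 37 °C, dark; add 5X beads (50 ug/mL); 1 h; read.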
gsp agonist = qHTS for Agonist of gsp, the Etiologic Mutation Responsible for Fibrous Dysplasia/McCune-Albright Syndrome: qHTS; gsp mutant cells, cAMP HTRF, 30 min; control for the full effect not named in the record; Potency, µM (doses to about 76.9 µM), without a hit: at the top dose activation (cAMP increase), hits mostly activators; 340,000 compounds, 0.13% hits; AID 624287, 2012; active = well fitted activation curve with a large enough effect; inconclusive = small, poorly fitted or top-dose-only effect, or another doubt; inactive = no such curve, though single readings can be large or run the other way; cell line not stated here;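 also: phosphodiesterase inhibitor Ro 20-1724 added with compounds to block cAMP breakdown; potency is read from the fitted curve at half-maximal effect; nearly all actives have a fitted effect of over 60% in size; about a fifth of the inactives were tested at one dose only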
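Cells stably selected in G418 were plated at 2000/well, grown 16-24 hr, then given compounds in DMSO with the PDE inhibitor […] (300 uM solution added) for 30 min at 37C; cAMP was read by HTRF.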
Six1-Eya2 inh = qHTS Assay for Inhibitors of the Six1/Eya2 Interaction. Homeobox protein SIX1 (Homo sapiens) + Protein phosphatase EYA2 (Homo sapiens), …. AlphaScreen GST-Six1/His-Eya2 binding, biochemical; stronger effect = lower value; control for the full effect not named in the record. activity change, % (test concentration not listed). 360,000 compounds, 0.56% hits. AID 651725, 2012; in the data active = activity change below about -65%; inconclusive = about -30% to -65%; inactive = above about -30%; also: % is scaled to controls: 0 for no effect and ±100 for the full control effect
Target sequence (O00167 whole entry, looked up): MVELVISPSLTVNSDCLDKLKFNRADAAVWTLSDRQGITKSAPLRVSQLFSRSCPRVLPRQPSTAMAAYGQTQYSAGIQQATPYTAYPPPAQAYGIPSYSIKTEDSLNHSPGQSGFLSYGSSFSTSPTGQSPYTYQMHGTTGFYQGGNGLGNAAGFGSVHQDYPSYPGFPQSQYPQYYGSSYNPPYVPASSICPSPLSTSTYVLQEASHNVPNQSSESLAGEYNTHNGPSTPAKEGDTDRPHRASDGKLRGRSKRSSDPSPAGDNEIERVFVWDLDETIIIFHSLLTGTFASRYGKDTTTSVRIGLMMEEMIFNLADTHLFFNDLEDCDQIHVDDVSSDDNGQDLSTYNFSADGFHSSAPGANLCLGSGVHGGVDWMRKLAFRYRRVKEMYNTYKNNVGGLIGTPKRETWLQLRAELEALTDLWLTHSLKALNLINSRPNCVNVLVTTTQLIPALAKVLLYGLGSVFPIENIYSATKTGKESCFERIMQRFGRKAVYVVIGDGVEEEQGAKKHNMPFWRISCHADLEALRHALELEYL
Target sequence (Q15475 whole entry, looked up): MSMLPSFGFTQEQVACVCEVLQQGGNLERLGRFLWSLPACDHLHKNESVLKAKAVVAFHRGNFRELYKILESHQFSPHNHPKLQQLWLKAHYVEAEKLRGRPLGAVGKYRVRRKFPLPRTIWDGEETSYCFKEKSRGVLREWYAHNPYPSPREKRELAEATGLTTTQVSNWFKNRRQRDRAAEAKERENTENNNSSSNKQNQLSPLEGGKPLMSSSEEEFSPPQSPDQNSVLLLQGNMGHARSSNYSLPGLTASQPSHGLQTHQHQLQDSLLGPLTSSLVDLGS
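Homogeneous AlphaScreen proximity assay pairing GST-Six1 with His-tagged Eya2 (added as 5X mix: 250 nM and 500 nM) in 50 mM Tris pH 8.0, 300 mM NaCl, 1 mM TCEP. Glutathione donor and nickel acceptor beads; 1 h, 37 °C, dark.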
gsp antag = qHTS for Antagonists of gsp, the Etiologic Mutation Responsible for Fibrous Dysplasia/McCune-Albright Syndrome: qHTS; gsp-mutant cells, cAMP HTRF, 30 min; control for the full effect not named in the record; AID 624288, 2012; Potency, µM (doses to about 76.9 µM), for inactives: at the highest dose activity change, negative = inhibition, most hits filed as inhibitors; 340,000 compounds, 0.4% hits; active = falling curve of any shape with a large fitted effect; inconclusive = falling curve, mostly with a smaller effect; inactive = flat or rising curve; cell line not stated here;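 also: intracellular cAMP measured with PDE inhibitor Ro 20-1724 present during compound exposure; potency is read from the fitted curve at half-maximal effect; % is scaled to controls: 0 for no effect and ±100 for the full control effect; nearly all actives have a fitted effect of over 65% in size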
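Measurement of cellular cAMP by homogeneous time-resolved fluorescence following a 30 min compound exposure at 37C. The PDE inhibitor […] was present throughout; the assay buffer was DPBS with 0.05% BSA and 0.005% Tween 20.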
D2 agonist = Beta-Arrestin HTS for Positive Allosteric Modulators of the Human D2 Dopamine Receptor: Agonists | AID 624465, 2012 | 360,000 compounds, 0.084% hits | activation, % (concentration not given with the values) | DiscoveRx PathHunter D2 beta-arrestin, luminescence, 90 min; 100% = 57 uM dopamine signal | D(2) dopamine receptor (Homo sapiens), P14416; in the data active = activation above about 40%; inconclusive = about 15% to 40%; inactive = below about 15%; also: the text of the record calls up to 30% inactive
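Agonist mode: compounds alone added to overnight-plated D2 PathHunter cells for 90 min at 37 C, with 57 uM final dopamine (EC100) defining full response. Beta-arrestin recruitment detected by chemiluminescent reagent, read after 1 h at ambient temperature.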
D2 potentiator = Beta-Arrestin HTS for Positive Allosteric Modulators of the Human D2 Dopamine Receptor: Potentiators | D(2) dopamine receptor (Homo sapiens), P14416 | DiscoveRx D2 beta-arrestin cells, luminescence, 90 min; 100% = 57 uM dopamine signal | potentiation, % (concentration not given with the values) | 360,000 compounds, 0.23% hits | AID 624464, 2012; active = potentiation of 50% or more; inconclusive = 30% to 50%; inactive = 30% or less;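 also: tested on top of an EC20 dose of dopamine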
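PathHunter beta-arrestin assay in DiscoveRx D2 cells. Compounds were added with an EC20 of dopamine (50 nM final) for 90 min at 37 deg C. Luminescence was read 1 h after detection reagent, with 57 uM dopamine as the EC100 control.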
Numbers without * were called inactive; ? = inconclusive; · = no result given; [ ] = remark or other dose.

Start of the data: the first 2 entries, to show the layout:
SMILES	gsp agonist	D2 potentiator	CtBP-E1A blk	D2 agonist	gsp antag	Six1-Eya2 inh
COCCN1C(=O)N[C@@H](CCc2ccccc2)[C@H](C(=O)OC)[C@H]1C	·	-0.6	8.7	-0.6	-3.8%	9.4
CC(Oc1ccc2c(c1)oc(=O)c1ccccc12)C(=O)NCC1CCC(C(=O)O)CC1 (stereo not given)	·	-9.0	-28.2	-6.4	-6.7%	-4.7

All compounds of this part (from the top)
SMILES	gsp agonist	D2 potentiator	CtBP-E1A blk	D2 agonist	gsp antag	Six1-Eya2 inh
COCCN1C(=O)N[C@@H](CCc2ccccc2)[C@H](C(=O)OC)[C@H]1C	·	-0.6	8.7	-0.6	-3.8%	9.4
CC(Oc1ccc2c(c1)oc(=O)c1ccccc12)C(=O)NCC1CCC(C(=O)O)CC1 (stereo not given)	·	-9.0	-28.2	-6.4	-6.7%	-4.7
CCCCc1cc(=O)oc2cc(C)cc(OCC(=O)NCCN3CCOCC3)c12	?	-11.2	4.1	-1.7	7.2%	6.2
Fc1ccc(OCCCCCn2ccnc2)cc1	-58.9%	-4.4	-9.1	8.3	-3.7%	-6.9
COc1ccc(Cc2nnc(N/N=C(\C)c3ccccc3)[nH]c2=O)cc1OC	8.3%	-10.2	-17.5	0.0	9.4%	-14.7
Cn1c(=O)c2[nH]c(=O)[nH]c2n(C)c1=O	·	5.0	7.2	-1.7	5.4%	-3.6
O=C(N/N=C/c1c(O)n(-c2ccc(Cl)cn2)c(=O)c2ccccc12)C1CC1	4.0%[15.4 µM]	-19.5	-26.4	-6.6	-14.9%	?
O=C(COC(=O)Cc1ccc(Cl)cc1Cl)NCCC1=CCCCC1	?	1.7	11.4	8.7	6.4%	-0.3
O=C(COc1ccccc1)NC1C(=O)N2C(C(=O)O)=C(Cl)CSC12 (stereo not given)	-3.3%	1.9	-8.5	-3.3	8.1%	1.8
O=C(O)c1cc(Br)ccc1NN=C1CCCCC1	-4.8%[15.4 µM]	11.9	6.2	5.6	5.5%	-1.5
NC1=NC(=O)/C(=C\c2cc([N+](=O)[O-])ccc2Cl)S1	-18.8%	-9.3	·	-1.8	-14.2%	-1.5
Cc1nc(NC(C)C)c2oc3ccccc3c2n1	9.2%	3.6	-0.3	-0.1	-12.3%	-5.7
Cc1ccc(C(=O)OCc2nnc(-c3ccccc3)o2)o1	-7.0%	6.2	8.8	-2.6	-5.9%	-2.1
CC(=O)Nc1ccc(S(=O)(=O)N2CCN(C3CCCCCCC3)CC2)cc1	2.4%	-7.5	-6.1	-0.6	-7.7%	-7.9
COc1ccc(OC)c(NC(=O)N2CCc3ccccc3C2)c1	3.1%	-25.8	-7.8	-7.9	1.6%	-8.1
COc1ccc(NS(=O)(=O)c2ccc(NC(=S)NC(=O)C(C)C)cc2)cc1	0.0%	-1.4	-3.0	2.1	-16.5%	-14.4
c1cc(-c2cc3cc4c(cc3cn2)OCO4)cs1	·	-3.4	2.3	0.1	-5.4%	2.5
CC1CCCN(c2ccc(C(=O)Nc3cccnc3)cc2[N+](=O)[O-])C1 (stereo not given)	-7.4%[15.4 µM]	-9.1	1.2	-0.4	-6.9%	-21.1
Cc1noc(C)c1-c1nc(CS(=O)(=O)c2ccc(F)cc2)no1	10.9%	-15.7	·	-4.0	0.7%	10.1
CCOc1ccc(NC(=O)c2ccc(NC(=O)Cc3n[nH]c(=O)c4ccccc34)cc2)cc1	15.2%	-2.4	7.5	-5.3	12.7%	6.3
CCC(C(=O)Nc1ccc(C)cc1)c1ccccc1 (stereo not given)	-3.0%[15.4 µM]	-9.8	8.6	-4.1	-9.4%	-11.6
O=C(NC1CC1)c1ccc2c3c(cccc13)CC2	-22.3%	-9.3	-12.5	-1.5	-1.1%	5.2
COc1ccc(N2CCN(C(=O)c3ccc4c(c3)CCN4S(=O)(=O)c3ccccc3)CC2)cc1	9.4%	-7.4	·	2.1	?	?
O=C(NCc1ccccc1)c1cc2nc(C3CC3)cc(C(F)(F)F)n2n1	-22.1%	-14.4	7.6	-0.8	7.6%	2.6
COc1ccc(C(=O)NCc2nnc(SCC(=O)Nc3ccccc3OC)n2C)cc1	-3.8%[15.4 µM]	-3.0	-0.8	-1.6	-5.0%	5.6
COc1ccc([N+](=O)[O-])c(OC)c1C(=O)NC(=O)Nc1c(F)c(F)c(F)c(F)c1F	?	1.2	·	-0.5	0.7%	-5.2
O=C(CSc1nc(O)c(-c2ccccc2)c(=O)[nH]1)N1CCOCC1	-7.1%[15.4 µM]	-0.3	4.1	-0.6	4.2%	1.2
CC(C)CCN1C(=O)c2ccc(C(=O)Nc3cc(C(=O)O)cc(C(=O)O)c3)cc2C1=O	12.6%[15.4 µM]	5.8	-2.1	-5.3	4.6%	-11.6
Cc1ccc(NC(=O)COC(=O)c2ccc3c(c2)OCCO3)cc1S(=O)(=O)N1CCOCC1	-3.2%[15.4 µM]	-3.2	-2.2	-1.0	-21.1%	-4.2
CC(C)C(=O)NC(C)C(c1cccs1)N1CCN(c2ccccc2)CC1 (stereo not given)	-60.5%[inhibitor]	-13.3	11.1	0.8	-0.3%	-3.7
CN(C(=O)C1CCCCN1S(=O)(=O)c1ccccc1)c1ccccc1 (stereo not given)	0.7%	-4.9	1.8	-4.5	-0.6%	3.2
C=CCn1c(SCC(=O)Nc2sc(C)c(C)c2C(=O)OCC)nnc1-c1sc(N)nc1C	-6.9%	2.8	-15.1	0.0	?	-7.2
CCOc1ccc(CCNC(=O)COC(=O)C2CC2)cc1OCC	-7.6%	9.0	0.0	-2.4	8.7%	-1.4
CCN(CC(=O)Nc1ccc2c(c1)OCCO2)Cc1nc2cc(Cl)ccc2c(=O)[nH]1	-1.1%	-6.6	3.1	0.1	-20.7%	-13.9
CSc1cccc(NC(=O)CN2C(=O)c3ccccc3S2(=O)=O)c1	12.0%	-6.8	1.5	-1.4	0.3%	0.6
O=C(NCCCN1CCOCC1)c1cc2c(=O)[nH]c3ccccc3c2s1	2.3%[15.4 µM]	-8.3	-5.5	-3.5	5.7%	-14.4
COc1ccc(N2CCN(C(=O)c3cc(S(=O)(=O)N4CCCCCC4)ccc3OC)CC2)cc1	-28.5%	-20.9	-12.3	-2.0	-25.3%	-14.9
O=C(NC1CCCCC1)C1CC(=O)N(CCc2ccc(F)cc2)C1 (stereo not given)	-0.5%	-5.9	-3.5	-2.1	11.2%	0.9
CCOc1ccccc1-c1nnc(SCC(=O)NC2(C#N)CCCC2)o1	0.1%	-1.0	1.2	2.3	8.1%	-0.6
COc1cc(/C=N/S(=O)(=O)CCc2ccccc2)ccc1O	-9.2%[15.4 µM]	-1.6	9.7	1.1	22.2%	-7.2
CN(C)c1ccc(C(CNS(=O)(=O)c2ccc([N+](=O)[O-])cc2)N2CCOCC2)cc1 (stereo not given)	-8.4%[15.4 µM]	2.3	-6.7	5.1	-12.5%	-9.1
O=C(c1ccc2c3n(nc2c1)-c1ccccc1CO3)N1CCCCC1	·	-5.9	-3.1	0.3	-1.9%	-5.1
Cc1nnc(SCc2cccc3ccccc23)n(N)c1=O	-11.1%	0.3	-3.6	-2.9	0.8%	0.4
CC1(C)CC(=O)C=C(NCC(O)c2ccccc2)C1 (stereo not given)	-30.6%	-13.0	·	-1.8	8.0%	7.4
CC(C)CC(OC(=O)c1ccco1)C(=O)NC1CCCC1 (stereo not given)	-33.5%	-7.3	0.0	-1.0	-0.3%	3.2
CCOc1ccc(-c2nc(-c3ccc(OC)cc3)no2)cc1OCC	-71.1%[inhibitor]	-4.0	8.8	-0.8	-19.4%	4.0
COc1ccc(C2CC(c3ccccc3)=NN2S(=O)(=O)c2ccccc2)cc1 (stereo not given)	11.8%	-11.8	-4.8	-2.6	-7.0%	-7.4
O=C(Nc1ccc(Br)cc1)c1ccc(F)c(S(=O)(=O)NCc2cccs2)c1	28.8%	6.4	1.0	1.4	-17.8%	-17.2
COc1ccc2c(CC(=O)Nc3ccc4nc(N5CCOCC5)sc4c3)coc2c1	-7.9%	0.0	-0.8	2.6	·	-9.4
Cc1ccc(C(=O)NCC(=O)Nc2ccc(F)c(F)c2F)cc1	?	-6.9	6.6	1.6	-0.2%	12.7
Cc1ccc(-n2nnc(-c3ccnc4ccccc34)n2)cc1	0.9%	-2.7	5.4	0.3	-6.5%	9.0
CCOC(=O)C1(CCOC)CCN(Cc2ccc(C3CCCCO3)s2)CC1 (stereo not given)	?	2.5	0.0	-2.7	4.9%	16.1
CCN(CC)CCn1c2c(c(SCC(=O)Nc3cc(C)ccc3C)nc1=O)CCC2	11.7%	9.0	-1.1	1.9	0.9%	-3.0
CCCNC(=O)c1ccc(N2CCC3(CC2)CC(c2cccc(Br)c2)=NO3)c(NC(=O)c2cccc(OC)c2)c1	5.2%	-4.9	-6.4	-1.0	-11.7%	-0.8
Cc1nn(-c2ccccc2)c(N)c1N=Nc1cccc(S(=O)(=O)N2CCOCC2)c1	-5.9%[15.4 µM]	-8.9	-1.2	-0.5	-36.3%	-8.8
CCCNC(=O)C(Cc1ccccc1)NS(=O)(=O)c1ccc2c(c1)CCC(=O)N2 (stereo not given)	2.9%	-5.2	-0.1	-6.0	0.8%	-1.1
CN(C(=O)c1ccc2c(c1)SC1=NS(=O)(=O)CCN12)C(c1ccccc1)c1ccccc1	-25.1%	-8.9	7.7	-1.9	7.6%	0.7
C=CCOc1ccc(C2C(C#N)=C(N)N(Nc3ccccc3)C3=C2C(=O)CCC3)cc1OC (stereo not given)	?	-8.0	-3.4	-2.8	-16.0%	1.4
O=C(NCc1n[nH]c(=S)n1-c1ccc(Br)cc1)c1ccc(S(=O)(=O)N2CCCCC2)cc1	?	-13.1	0.4	-2.5	-7.4%	-2.0
COC(=O)c1ccc(NC(=O)CSc2ccc(-c3ccccn3)nn2)cc1	-4.7%[15.4 µM]	3.3	?	-3.6	-5.0%	?
O=C(Cn1c(NCCO)nc2ccccc21)NCC(F)(F)F	-1.6%	-5.5	1.1	-0.7	15.9%	6.5
CC(=O)c1ccc(OCCCC(=O)N(CCC2=CCCCC2)c2c(N)n(Cc3ccccc3)c(=O)[nH]c2=O)cc1	4.6%	27.1	-4.5	0.1	-7.1%	-6.3
